Assay outcomes as filed in PubChem BioAssay.
MLL AF4-AF9 inh: inhibitors of AF4 peptide binding to AF9, primary screen, biochemical, AlphaScreen, biotin-AF4 peptide, FLAG-AF9, single point | 0.47% of 350,000 active | Protein AF-9 (Homo sapiens), P42568 | inhibition, % at 10 µM;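 active = every replicate reaching a set inhibition limit, whatever the replicate mean, cut at about 25% in these data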;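 also: 0% = plate neutral control median and 100% = total signal loss; the record names both 10 and 1 µM as test concentration; the first replicate is given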
Target sequence (P42568 whole entry, looked up): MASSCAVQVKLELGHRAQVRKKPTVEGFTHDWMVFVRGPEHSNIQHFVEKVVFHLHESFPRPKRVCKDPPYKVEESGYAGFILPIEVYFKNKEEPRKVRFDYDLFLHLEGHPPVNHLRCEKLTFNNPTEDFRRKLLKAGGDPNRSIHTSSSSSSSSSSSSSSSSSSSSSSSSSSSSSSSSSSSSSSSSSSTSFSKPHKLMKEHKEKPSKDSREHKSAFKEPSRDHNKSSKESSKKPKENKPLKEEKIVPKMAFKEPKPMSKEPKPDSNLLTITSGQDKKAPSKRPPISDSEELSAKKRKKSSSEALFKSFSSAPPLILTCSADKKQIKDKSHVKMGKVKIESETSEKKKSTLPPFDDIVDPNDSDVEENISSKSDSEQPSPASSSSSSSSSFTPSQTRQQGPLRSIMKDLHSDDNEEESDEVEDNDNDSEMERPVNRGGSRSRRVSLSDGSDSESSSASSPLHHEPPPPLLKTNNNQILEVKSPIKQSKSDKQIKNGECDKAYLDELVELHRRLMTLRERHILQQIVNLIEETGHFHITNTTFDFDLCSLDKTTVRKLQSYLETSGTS
rRNA inh HTS: reduced GFP signal of wild-type E. coli, primary screen, bacterial rRNA inhibitor project, GFP/RFP fluorescence, OD600, single point; 1.6% of 350,000 active; AID 720706, 2013; GFP signal change (wild-type ribosome), % (concentration not given with the values); E. coli WT GFP vs humanized-ribosome RFP mutants, 24 h; active compounds read low; DMSO median 0, no signal -100;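 active = significant combined selectivity score with lowered wild-type GFP, culture density cut under 30%, mutant RFP and density less affected; inactive = any of these conditions unmet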; also: one replicate is shown; some compounds called inactive have numbers as strong as hits
rRNA inh HTS OD600: recorded beside rRNA inh HTS, whose call it bears; OD600 change, %; measured here: OD600 growth;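 optical density of the mix in the first replicate; 0 = DMSO median and -100 = no signal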
rRNA inh HTS RFP: second read-out of rRNA inh HTS, no call of its own (marks repeat the call); RFP signal change, %; measured here: RFP humanized mutant strains;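 first replicate; 0 = DMSO median and -100 = no signal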
An asterisk follows results filed as active; & = joins results of further samples. Only part of the results is shown; the hit share may differ from the screen's.

| rRNA inh HTS | MLL AF4-AF9 inh | Compound | rRNA inh HTS RFP | rRNA inh HTS OD600 |
| --- | --- | --- | --- | --- |
| -1 | -1.2 | C[C@H]1CN([C@@H](C)CO)C(=O)c2cccc(NS(=O)(=O)c3cccs3)c2O[C@@H]1CN(C)S(=O)(=O)c1ccc(Cl)cc1 | 3.1 | -3 |
| -1 | 1.0 | C[C@H]1CN([C@@H](C)CO)C(=O)CCCn2nncc2CO[C@H]1CN(C)Cc1ccc2cccnc2c1 | 0.4 | -3 |
| -5 | 3.7 | C[C@H]1CCCCO[C@H](CN(C)C(=O)Nc2ccc(C(F)(F)F)cc2)[C@@H](C)CN([C@@H](C)CO)C(=O)c2cc(NS(C)(=O)=O)ccc2O1 | -3.6 | -7 |
| 1 | -0.6 | O=C(Nc1ccc(S(=O)(=O)Nc2ncccn2)cc1)c1cccc([N+](=O)[O-])c1 | -2.3 | 10 |
| 6 | 2.4 | COc1ccc(C(=O)NCC2CCCO2)cc1S(=O)(=O)NCc1ccc(Cl)cc1 (configuration not stated) | -1.2 | -2 |
| -2 | -0.7 | CCNC(=O)C[C@H]1CC[C@@H]2[C@@H](COc3ccc(NC(=O)Nc4ccccc4F)cc3C(=O)N2C)O1 | 0.9 | -1 |
| 4 | -8.3 | CC(=O)Nc1cccc(-c2ccnc3c2CC(C(=O)NCc2ccncc2)O3)c1 (configuration not stated) | 2.3 | 13 |
| -17* | -0.9 | C[C@@H]1CN([C@@H](C)CO)C(=O)CCCn2nncc2CO[C@H]1CN(C)C(=O)Nc1cccc(C(F)(F)F)c1 | 5.6* | -6.9* |
| -12 | 2.2 | COCCNC(=O)c1cc2c(c(-c3cccc(-c4cccc(OC)c4)c3)n1)[C@H](CCO)N(S(=O)C(C)(C)C)C2 (some centres not stated) | 4.2 | -4 |
| -1 | -5.2 | O=C1CN(Cc2ccc(F)cc2)C[C@@H]2[C@@H](c3ccc(Br)cc3)[C@@H](CO)N12 | -4.9 | -12 |
| 1 | 0.0 | O=C(C[C@@H]1C=C[C@@H](NC(=O)c2ccc(F)cc2)[C@@H](CO)O1)NCCc1ccccc1 | -1.5 | 4 |
| 5 | -6.7 | Cc1c(C(=O)NCc2ccc3c(c2)OCO3)sc(=O)n1Cc1ccc(S(=O)(=O)N(C)C)cc1 | -5.0 | -2 |
| -3 | -2.5 | O=C(C[C@H]1CC[C@@H]2[C@H](COC[C@@H](O)CN2Cc2nccs2)O1)NCc1ccccc1Cl | -0.1 | -6 |
| -1 | -1.5 | CCN1[C@H](C(=O)NC2Cc3ccccc3C2)[C@@H](CO)[C@@H]2Cn3c(cccc3=O)[C@@H]21 | -0.9 | 2 |
| 1 | 9.3 | COc1cccc(C#Cc2ccc3c(c2)[C@@H]2[C@@H](CCN2C(=O)CC2CC2)[C@H](CO)N3)c1 | -0.9 | 11 |
| -1 | 4.3 | C[C@H](CO)N1C[C@H](C)[C@H](CN(C)S(=O)(=O)c2ccc(Cl)cc2)Oc2c(NC(=O)Nc3ccc4c(c3)OCO4)cccc2C1=O | 0.5 | -6 |
| 3 | -0.3 | O=C(C[C@@H]1C=C[C@H](NC(=O)C2CCC2)[C@@H](CO)O1)NCCCN1CCOCC1 | -3.6 | 4 |
| -53 | 14 | C[C@H]1CN([C@@H](C)CO)C(=O)Cc2cc(NC(=O)Nc3ccc4c(c3)OCO4)ccc2O[C@H]1CN(C)Cc1ccccc1 | -9.1 | -66 |
| 1 | -0.9 | C[C@H]1CCCCO[C@@H](CN(C)C(=O)Nc2ccc(F)cc2)[C@@H](C)CN([C@@H](C)CO)C(=O)c2cc(NC(=O)C3CCCCC3)ccc2O1 | 0.4 | 5 |
| 5 | -1.5 | C[C@H](NC(=O)C[C@@H]1C[C@@H]2c3cc(N(C)C)ccc3O[C@@H]2[C@H](CO)O1)c1ccccc1 | 1.2 | 7 |
| -3 | 0.4 | COc1cccc(CN(C)C[C@@H]2OCc3ccccc3-c3c(n(C)c4ccccc34)C(=O)N([C@H](C)CO)C[C@@H]2C)c1 | 2.0 | -5 |
| -4 | 1.6 | O=C(Nc1ccc(F)cc1)N1C[C@@H]2[C@H](c3ccccc31)[C@@H](CO)N2Cc1ccccc1 | 0.7 | -10 |
| -4 | -2.8 | C[C@@H]1CN([C@H](C)CO)C(=O)c2cccc(NC(=O)NC3CCCCC3)c2O[C@H]1CN(C)S(=O)(=O)c1cn(C)cn1 | -2.3 | 2 |
| 3 | -0.8 | CCOC(=O)C1=CN(Cc2cccc(F)c2)S(=O)(=O)N(C)C1c1ccc(C(F)(F)F)cc1 (configuration not stated) | -1.1 | 11 |
| 1 | -11 | C[C@H]1CN([C@@H](C)CO)C(=O)CCCn2nncc2CO[C@@H]1CN(C)Cc1cccnc1 | -2.7 | -2 |
| -1 | -3.4 | Cc1noc(C)c1NC(=O)Nc1ccc2c(c1)C(=O)N([C@@H](C)CO)C[C@H](C)[C@H](CN(C)Cc1ccc3c(c1)OCO3)O2 | 1.0 | 4 |
| -5 | 7.5 | CCC(=O)Nc1ccc2c(c1)OC[C@@H](C)N(Cc1ccccc1F)C[C@H](C)[C@H](OC)CN(C)C2=O | 7.9 | -17 |
| 5 | 0.2 | Cn1cnc(S(=O)(=O)N2CCCCC2c2cc(C(=O)Nc3cccc(C#N)c3)no2)c1 (configuration not stated) | -3.4 | 8 |
| -3 | -2.7 | C[C@@H]1CCCCO[C@H](CN(C)C)[C@H](C)CN([C@@H](C)CO)C(=O)c2cc(NC(=O)Cc3ccccc3)ccc2O1 | -4.2 | -1 |
| 2&2 | -6.9&-0.9 | c1cncc(-c2ccc(C3[C@@H]4CN(Cc5nccs5)C[C@H]3N4)cc2)c1 (some centres not stated) | -2.5&-2.3 | 11&9 |
| 3 | 9.3 | CO[C@H]1CC[C@@H]2CCOc3c(C#N)cccc3C(=O)N(C)C[C@H](c3ccccc3)CC(=O)N(C)C[C@@H]1O2 | 0.7 | 7 |
| 3 | -9.7 | Cc1ccc(S(=O)(=O)Nc2cccc3c2O[C@H](CN(C)S(=O)(=O)c2cn(C)cn2)[C@@H](C)CN([C@H](C)CO)C3=O)cc1 | 0.0 | 9 |
| 0 | -1.5 | CCCN1[C@@H]2c3ccc(-c4ccccc4OC)c(=O)n3C[C@@H]2[C@@H](CO)[C@@H]1C(=O)N(C)C | -2.6 | 0 |
| 1 | 1.6 | O=C1N[C@@H](Cc2ccccc2)COCc2cn(nn2)CC[C@@H]1Cc1ccccc1 | -1.4 | -2 |
| 2 | 6.3 | CNC[C@H]1Oc2ncc(C#CCC3CCCC3)cc2C(=O)N([C@@H](C)CO)C[C@H]1C | 22 | 0 |
| -56&-56 | -6.1&2.2 | O=C(C1CCCCC1)N1C[C@@H]2N[C@H](C1)C2c1ccc(-c2cccc(F)c2)cc1 (some centres not stated) | -11&-7.2 | -76&-76 |
| 2 | -2.8 | OC[C@H]1[C@H](c2ccc(-c3ccccc3F)cc2)[C@H]2CN(Cc3cncnc3)CCCCN21 | -2.6 | 18 |
| -6 | 0.3 | CC(=O)c1cccc(-c2ccnc3c2CC(C(=O)NCCc2ccccc2)O3)c1 (configuration not stated) | -1.9 | -17 |
| 4 | -1.5 | COc1ccc(CN(C)C[C@@H]2Oc3ccc(NS(=O)(=O)c4c(C)noc4C)cc3CC(=O)N([C@H](C)CO)C[C@H]2C)cc1 | 1.2 | 12 |
| -2 | -0.5 | C[C@H]1CN([C@@H](C)CO)C(=O)c2cc(C#CC3CCCC3)cnc2O[C@@H]1CN(C)C(=O)Cc1ccccn1 | -1.2 | 1 |
| -4 | -12 | O=C([C@H]1[C@H](CO)[C@H]2Cn3c(ccc(/C=C/c4ccccc4)c3=O)[C@H]2N1CC1CC1)N1CCCCC1 | 12 | -15 |
| 0 | -0.1 | O=C(C[C@@H]1C[C@H]2c3cc(NC(=O)C4CCC4)ccc3O[C@H]2[C@H](CO)O1)NC1CCCC1 | -0.8 | 12 |
| 7 | 0.5 | C#CCNC(=O)c1cc2c(Br)ccc(Br)c2nc1N | -4.6 | -20 |
| 3 | -3.1 | CCC(=O)Nc1ccc2c(c1)C(=O)N(C)[C@H]1CC[C@H](CC(=O)O)O[C@@H]1CO2 | -2.7 | 2 |
| -6 | 0.5 | CCCC(=O)Nc1ccc2c(c1)C(=O)N(C)C[C@H](OC)[C@@H](C)CN(Cc1ccccc1F)[C@H](C)CO2 | 5.2 | -20 |
| 4 | -0.9 | C[C@@H]1CN([C@@H](C)CO)C(=O)Cc2cc(NC(=O)C3CCCCC3)ccc2O[C@H]1CN(C)C | -3.2 | 10 |
| 2 | 1.4 | NCC[C@@H]1CC[C@@H](NC(=O)Nc2ccc(F)cc2)[C@H](CO)O1 | -0.5 | 2 |
| -3 | 5.5 | Cc1ccc(S(=O)(=O)N(C)C[C@H]2Oc3ccc(N(C)C)cc3C(=O)N([C@@H](C)CO)C[C@H]2C)cc1 | -0.4 | -7 |
| 4 | -1.7 | O=C(C[C@@H]1C=C[C@H](NC(=O)c2cccnc2)[C@@H](CO)O1)NCc1ccncn1 | -1.2 | 8 |
| -8 | 2.0 | CC(=O)N1CC2(C1)[C@@H](c1ccc(-c3ccccc3C)cc1)[C@@H](CO)N2C(=O)CC1CC1 | -0.6 | -16 |
| 0 | 0.1 | O=C(O)C[C@H]1C[C@@H]2c3cc(NC(=O)Nc4ccc(C(F)(F)F)cc4)ccc3O[C@@H]2[C@@H](CO)O1 | 1.9 | -1 |
| -3 | -3.0 | C[C@@H]1CN([C@@H](C)CO)C(=O)c2cc(NC(=O)Cc3ccccc3)ccc2O[C@H]1CN(C)S(=O)(=O)c1ccccc1 | 0.3 | -11 |
| -2 | 3.0 | COc1ccc(S(=O)(=O)N(C)C[C@H]2Oc3c(NC(=O)Nc4ccc5c(c4)OCO5)cccc3C(=O)N([C@H](C)CO)C[C@H]2C)cc1 | -4.0 | -8 |
| -3 | 6.5 | C[C@@H]1CCCCO[C@H](CN(C)Cc2ccc3c(c2)OCO3)[C@H](C)CN([C@H](C)CO)C(=O)c2cc(NC(=O)Nc3ccccc3)ccc2O1 | 23 | -27 |
| 0 | 7.3 | C[C@@H]1CN([C@H](C)CO)C(=O)c2cc(C#Cc3ccc(F)cc3)cnc2O[C@H]1CN(C)CC1CCOCC1 | 2.5 | 14 |
| 1 | -0.5 | CCCNC(=O)N1[C@H](CO)[C@@H](c2ccccc2C2=CCCCC2)[C@@H]1C#N | 2.0 | -11 |
| 0 | -1.1 | COc1ccccc1-c1ccc2n(c1=O)C[C@H]1[C@H](CO)[C@@H](C(=O)N[C@H](C)c3ccccc3)[C@@H]2N1C | -0.9 | -4 |
| -1 | -32 | CC(C)C[C@@H](COCc1cccc(Cl)c1)N1CCN(C(=O)c2cccc(C(F)(F)F)c2)CCC1=O | -1.5 | -18 |
| 16 | 1.4 | CC(=O)NCCNC(=O)C1(C)Cc2c(-c3ccc(NC(C)=O)cc3)ccnc2O1 (configuration not stated) | -1.0 | 13 |
| -18 | 0.6 | COC(=O)C1=CN(c2ccc3c(c2)OCO3)C(N)=C(C#N)C1c1ccccc1 (configuration not stated) | -11 | -31 |

Whole records as entered above. Order of values: rRNA inh HTS | MLL AF4-AF9 inh | rRNA inh HTS RFP | rRNA inh HTS OD600
`C[C@@H]1CN([C@@H](C)CO)C(=O)c2cc(NC(=O)Cc3ccccc3)ccc2O[C@H]1CN(C)S(=O)(=O)c1ccccc1` reads -3 | -3.0 | 0.3 | -11
`CCCNC(=O)N1[C@H](CO)[C@@H](c2ccccc2C2=CCCCC2)[C@@H]1C#N` reads 1 | -0.5 | 2.0 | -11
`CC(C)C[C@@H](COCc1cccc(Cl)c1)N1CCN(C(=O)c2cccc(C(F)(F)F)c2)CCC1=O` reads -1 | -32 | -1.5 | -18
`C[C@@H]1CN([C@H](C)CO)C(=O)c2cccc(NC(=O)NC3CCCCC3)c2O[C@H]1CN(C)S(=O)(=O)c1cn(C)cn1` reads -4 | -2.8 | -2.3 | 2
`C#CCNC(=O)c1cc2c(Br)ccc(Br)c2nc1N` reads 7 | 0.5 | -4.6 | -20

Other compounds follow.
| rRNA inh HTS | MLL AF4-AF9 inh | Compound | rRNA inh HTS RFP | rRNA inh HTS OD600 |
| --- | --- | --- | --- | --- |
| -6 | -2.5 | CO[C@H]1CN(C)C(=O)c2ccc(NC(=O)C3CC3)cc2OC[C@@H](C)N(Cc2ccccc2)C[C@@H]1C | 1.8 | -12 |
| 4 | 1.6 | O=C(NC1CCCC1)N[C@@H]1C=C[C@@H](CC(=O)N2CCOCC2)O[C@H]1CO | 0.0 | 13 |
| -1 | -2.1 | O=S1(=O)CC(N2CCN(c3ccccn3)CC2)CN1C1CCCCC1 (configuration not stated) | -1.5 | 3 |
| 4 | -1.2 | Cc1ccc(C)c(C(O)c2ncc(-c3ccc(F)cc3)[nH]2)c1 (configuration not stated) | 3.8 | 2 |
| 0 | -4.1 | COCC(=O)N(C)C[C@@H]1Oc2ncc(C#Cc3ccccc3OC)cc2C(=O)N([C@H](C)CO)C[C@H]1C | -0.6 | 2 |
